CBX7 AlphaScr: CBX7 chromodomain binding inhibitors, primary screen, biochemical, AlphaScreen; Chromobox protein homolog 7 (Homo sapiens), O95931; AlphaScreen His6-CBX7 / biotin-H3K27me3 peptide binding; hits give low values; normalised signal (fraction of DMSO) (concentration not given with the values); hit rate 1.1% among 66,000; AID 1224903, 2016; in the data active means normalised signal below about 0.5;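 further: 100 nL library stock added to about 20 µL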
Target sequence (O95931 whole entry, looked up): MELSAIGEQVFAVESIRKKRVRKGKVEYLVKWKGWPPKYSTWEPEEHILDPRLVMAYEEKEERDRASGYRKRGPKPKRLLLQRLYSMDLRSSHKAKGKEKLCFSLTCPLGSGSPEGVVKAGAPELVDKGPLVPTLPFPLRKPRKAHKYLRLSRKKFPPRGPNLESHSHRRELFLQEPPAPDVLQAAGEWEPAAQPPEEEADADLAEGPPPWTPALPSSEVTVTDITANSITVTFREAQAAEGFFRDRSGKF
CBX7 AlphaScr z-score: second read-out of CBX7 AlphaScr, no call of its own (marks repeat the call); z-score; measured here: z-score of CBX7 signal; some inactives read as strong as hits; reference of the scale not given here;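 same signal on another scale; lower means less binding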
The depositor's hits bear a star.

| SMILES | CBX7 AlphaScr | CBX7 AlphaScr z-score |
| --- | --- | --- |
| Cc1c(C(=O)N2CCN(c3ccccc3F)CC2)sc2ncnc(N3CCc4ccccc4C3)c12 | 1.07 | 0.911 |
| CCCCCCOc1ccc(N2C(=O)CC(NCCc3ccc(OC)c(OC)c3)C2=O)cc1 (stereo not drawn) | 1.01 | 0.222 |
| O=C1CC(c2cccc(Cl)c2Cl)c2cc3c(cc2N1)OCO3 (stereo not drawn) | 0.954 | -1.35 |
| Cc1ccn2c(NC(=O)c3ccc(F)cc3)c(-c3cccs3)nc2c1 | 1 | 0.00296 |
| CCn1c(=O)cc(OCC(=O)Nc2ccc(OC)c(Cl)c2)c2ccccc21 | 1.04 | 0.677 |
| CCN(CC)CCNC(=O)C1CCC(=O)N1CCc1ccccc1 (stereo not drawn) | 0.957 | -1.09 |
| Cc1ccc(-n2nc3c(c2NC(=O)c2cccc(C(F)(F)F)c2)CS(=O)(=O)C3)cc1 | 1.03 | 0.203 |
| CCc1nc(N2CCC(C)CC2)c(C#N)c2c1CCCC2 | 0.889 | -1.32 |
| O=C(CSc1ccc2nnc(-c3ccccc3)n2n1)Nc1ccc2c(c1)OCCO2 | 0.936 | -0.767 |
| COc1ccc(C)cc1NC(=O)C1CCN(S(=O)(=O)c2ccc3c(c2)CCC(=O)N3)CC1 | 0.992 | -0.1 |
| COc1ccc(NC(=O)Cn2cc(S(=O)(=O)c3ccc(C)cc3)c(=O)c3ccccc32)cc1 | 0.906 | -1.35 |
| COc1ccc(NC(=O)COc2cc(=O)n(C)c3ccccc23)cc1OC | 0.859 | -2.16 |
| O=C(NCc1ccccc1Cl)C1CCCN1S(=O)(=O)c1cccc2cccnc12 (stereo not drawn) | 0.981 | -0.623 |
| Cc1ccc(NC(=O)Cn2cc(S(=O)(=O)c3ccc(F)cc3)c(=O)c3cc(F)ccc32)cc1 | 0.854 | -2.1 |
| CCn1c(SCc2nc3ccccc3c(=O)[nH]2)nnc1-c1ccccc1 | 1.08 | 0.654 |
| O=C(Cn1nnc(-c2ccccc2Cl)n1)Nc1ccc(OC(F)(F)F)cc1 | 1.12 | 3.19 |
| Clc1ccc(-c2ncnn2-c2ccc(Br)nc2)cc1 | 0.908 | -1.09 |
| CC(=O)N1CCn2c3c(c4cc(C)ccc42)CCCC31 (stereo not drawn) | 0.861 | -0.994 |
| CCc1ccccc1NC(=O)C(Cc1ccccc1)NS(=O)(=O)c1ccc2c(c1)CCC(=O)N2 (stereo not drawn) | 1.06 | 1.15 |
| COc1ccc(Nc2c(-c3ccccc3)nc3cnccn23)cc1 | 0.979 | -0.848 |

The list continues.
| SMILES | CBX7 AlphaScr | CBX7 AlphaScr z-score |
| --- | --- | --- |
| c1ccc(Cc2nnc3sc(-c4ccccn4)nn23)cc1 | 0.749 | -7.39 |
| CCn1cc(C(=O)Nc2ccc(F)cc2F)c2cc(OC)c(OC)cc2c1=O | 1.12 | 1.72 |
| O=C(Cc1c(C(=O)O)[nH]c2ccccc12)NCC1CCCO1 (stereo not drawn) | 1.05 | 1.04 |
| Cc1cc(OCC(=O)Nc2cc(-c3nc4ncccc4o3)ccc2C)ccc1Cl | 0.86 | -1.5 |
| COc1ccccc1-c1c(C)nn2c(Cl)cc(C)nc12 | 0.973 | -1.1 |
| COC(=O)c1cc2ccsc2n1Cc1nc(-c2ccccc2Cl)oc1C | 0.922 | -2.24 |
| O=C(CSCc1ccccc1)Nc1nnc(Cc2ccc(Cl)c(Cl)c2)s1 | 1.13 | 0.559 |
| Cc1cccc(N2CCN(C(=O)c3cc(C)n(-c4ccccc4)n3)CC2C)c1 (stereo not drawn) | 0.964 | -1.18 |
| Cc1cccc(Nc2nc3nonc3nc2Nc2ccccc2I)c1 | 0.957 | -1.52 |
| Cc1[nH]c2ccccc2c1CCNC(=O)c1ccc(Cl)cc1 | 0.978 | -0.532 |
| Cc1ccccc1NC(=O)c1cc(-c2cccs2)nc2ccccc12 | 1.02 | 0.545 |
| Cc1ccc(NC(=O)Cn2cnc3scc(-c4ccccc4)c3c2=O)cc1Cl | 0.924 | -2.03 |
| Cc1ccc(-c2noc(COc3ccc(C(C)C)cc3Br)n2)cc1 | 1.38 | 11.5 |
| Cc1ccc(NC2c3ccccc3C(=O)N2c2ccc(Cl)cc2)cc1 (stereo not drawn) | 0.971 | -1.04 |
| Oc1ccccc1-c1nc(NCC2CCOC2)c2ccccc2n1 (stereo not drawn) | 0.924 | -0.854 |
| O=C(CCn1nc(-c2ccccc2)ccc1=O)NCc1ccc2c(c1)OCO2 | 1.03 | 0.83 |
| COc1cc2cc(C(=O)Nc3ccccc3)c(N)nc2cc1OC | 1.17 | 4.63 |
| Cc1cc(Nc2cc(C(F)(F)F)ccc2Cl)n2nc(C)nc2n1 | 1.03 | 0.578 |
| CCOc1ccc(CNC(=O)CCc2nc(-c3ccc(C)cc3)no2)cc1 | 1.04 | 1.37 |
| Cc1cc(Nc2ccc(Br)c(C)c2)n2nc(C)nc2n1 | 1.07 | 1.56 |

Structures shown so far that contain fluorine, in the order listed:
| SMILES | CBX7 AlphaScr | CBX7 AlphaScr z-score |
| --- | --- | --- |
| Cc1c(C(=O)N2CCN(c3ccccc3F)CC2)sc2ncnc(N3CCc4ccccc4C3)c12 | 1.07 | 0.911 |
| Cc1ccn2c(NC(=O)c3ccc(F)cc3)c(-c3cccs3)nc2c1 | 1 | 0.00296 |
| Cc1ccc(-n2nc3c(c2NC(=O)c2cccc(C(F)(F)F)c2)CS(=O)(=O)C3)cc1 | 1.03 | 0.203 |
| Cc1ccc(NC(=O)Cn2cc(S(=O)(=O)c3ccc(F)cc3)c(=O)c3cc(F)ccc32)cc1 | 0.854 | -2.1 |
| O=C(Cn1nnc(-c2ccccc2Cl)n1)Nc1ccc(OC(F)(F)F)cc1 | 1.12 | 3.19 |
| CCn1cc(C(=O)Nc2ccc(F)cc2F)c2cc(OC)c(OC)cc2c1=O | 1.12 | 1.72 |
| Cc1cc(Nc2cc(C(F)(F)F)ccc2Cl)n2nc(C)nc2n1 | 1.03 | 0.578 |

Additional structures follow.
| SMILES | CBX7 AlphaScr | CBX7 AlphaScr z-score |
| --- | --- | --- |
| CCOc1ccc(NC(=O)c2ccc3c(=O)n4c(nc3c2)CCCCC4)cc1 | 1.03 | 0.0349 |
| O=C(Nc1c(C(=O)N2CCC(Cc3ccccc3)CC2)cnn1-c1ccccc1)c1ccco1 | 1.01 | 0.133 |
| O=C(C1CCCN(S(=O)(=O)c2cccc3cccnc23)C1)N1CCCC1 (stereo not drawn) | 0.934 | -0.0866 |
| COc1ccc(CCNc2cc(C)nc3c(-c4ccc(OC)c(OC)c4)c(C)nn23)c(OC)c1 | 0.85 | -0.377 |
| Cc1oc(-c2cccc(Cl)c2)nc1CN1CCCC(C(=O)NC2CCCCCCC2)C1 (stereo not drawn) | 1.05 | 1.36 |
| O=C(Nc1cccc(C(F)(F)F)c1)c1cnc2ccccc2n1 | 0.964 | -0.649 |
| CCN1CCN(C(c2cccs2)C(C)NC(=O)c2cccnc2)CC1 (stereo not drawn) | 1.23 | 2.41 |
| COc1cc(CNC(=O)c2c(-c3ccccc3Cl)noc2C)cc(OC)c1OC | 0.847 | -2.42 |
| O=C(Cn1c(SCc2ccccc2F)nc2ccncc21)Nc1ccc(Br)cc1F | 0.952 | -2.29 |
| Cc1ccc2nc(N3CC(=O)Nc4ccccc43)nc(-c3ccccc3)c2c1 | 0.977 | -0.245 |
| Cn1c2ccccc2n2cc(-c3ccccc3)nc12 | 1.49 | 0.993 |
| COc1ccc(CCNC(=O)c2ccc3c(c2)N(Cc2cccc(Cl)c2)C(=O)CS3)cc1OC | 0.954 | -1.8 |
| COc1ccc(CNC(=O)c2nc(-c3ccccc3C)oc2C)cc1 | 0.766 | -4.25 |
| Cc1ccnc(Nc2nc(-c3ccc(C(C)C)cc3)cs2)c1 | 0.866 | -1.59 |
| O=C(Nc1nonc1-c1ccc(Cl)cc1)c1ccccc1 | 0.932 | -1.83 |
| CCC(Cc1ccccc1)NS(=O)(=O)c1ccc2c(c1)CCN2C(=O)C1CC1 (stereo not drawn) | 0.977 | -0.661 |
| CCOC(=O)c1cnc2c(C)cc(C)cc2c1Nc1ccccc1OC | 0.999 | -0.0138 |
| O=S1(=O)N=C(Nc2ccc(S(=O)(=O)N3CCCC3)cc2)c2ccccc21 | 1.07 | 1.16 |
| COc1ccc(NC(=O)c2cccc3c2C(=O)N(Cc2cccnc2)C3)c(OC)c1 | 1.06 | 1.14 |
| Clc1ccc(-c2noc(CN3CCC(Cc4ccccc4)CC3)n2)cc1 | 0.888 | -1.41 |

Later entries:
| SMILES | CBX7 AlphaScr | CBX7 AlphaScr z-score |
| --- | --- | --- |
| COc1ccc(NC(=O)CN2C(=O)c3ccccc3S2(=O)=O)c(OC)c1 | 1.21 | 2.16 |
| O=C(Nc1ccncc1)C1(c2ccccc2)CCOCC1 | 0.966 | -0.371 |
| COc1ccc(C(=O)NCCCc2nc3ccccc3n2Cc2ccccc2F)cc1OC | 0.931 | -1.3 |
| Cc1oc(-c2cccc(Cl)c2)nc1CN1CCC(C(=O)N2CCOCC2)CC1 | 0.99 | -0.245 |
| Cc1cccc(CC2CC(=O)N(c3ccc4ccccc4n3)C2=O)c1 (stereo not drawn) | 1.21 | 1.36 |
| O=C(Nc1ccccc1-c1nc2ccccc2s1)c1ccc(S(=O)(=O)N2CCOCC2)cc1 | 1.02 | 0.673 |
| c1cc2nncn2nc1NCCCN1CCOCC1 | 0.975 | -0.688 |
| O=C(c1c[nH]c2ccc(S(=O)(=O)Nc3ccccc3F)cc2c1=O)N1CCC2(CC1)OCCO2 | 0.841 | -3 |
| COc1ccccc1NC(=O)Cn1cnc2sc(C(=O)Nc3cc(F)ccc3C)c(C)c2c1=O | 1.07 | 0.695 |
| Cc1ccc(C)c(OCc2nc(-c3ccccn3)no2)c1 | 0.824 | -3.04 |
| CCOc1ccccc1CNC(=O)Cn1ncc2ccccc21 | 1.06 | 1.77 |
| COc1ccc(-c2[nH]c(-c3ccc(F)cc3)nc2SCC(=O)Nc2ccc(OC)c(OC)c2)cc1 | 0.796 | -9.68 |
| CCOC(=O)c1cc(-c2ccccc2)n(-c2cccc(C(=O)NCc3ccc(OC)cc3)c2)c1C | 0.83 | -4.51 |
| CC12CCC(C(=O)N3CCCCC3)(CC1=O)C2(C)C (stereo not drawn) | 0.993 | -0.205 |
| O=C(Nc1ccc2c(c1)OCO2)C(c1ccccc1)N1CCC2(CC1)OCCO2 (stereo not drawn) | 0.954 | -1.04 |
| Cc1oc(-c2ccc(Cl)cc2)nc1C(=O)NCCCOC(C)C | 1.02 | 0.0421 |
| Cc1ccc(CN2C3=NC(=O)CN3c3ccccc32)cc1 | 1.14 | 1.47 |
| Cc1cccc(N2CC(c3nc4ccccc4n3C)CC2=O)c1C (stereo not drawn) | 1.11 | 0.704 |
| COc1cccc(C(=O)Nc2ccc(S(=O)(=O)N3CCCCC3c3cccnc3)cc2)c1 (stereo not drawn) | 0.939 | -0.944 |
| O=C(c1ccc2c(c1)N(Cc1ccccc1)CCS2)N1CCCCCC1 | 0.459* | -0.717* |

Next section
SMILES	CBX7 AlphaScr	CBX7 AlphaScr z-score
COc1cccc(C(=O)Nc2nc(-c3c(C)cc(C)cc3C)cs2)c1	0.987	-0.285
O=C(O)CCNc1cc(Cl)ccc1Oc1ccc(Cl)cc1	1.04	1.42
O=C(O)c1cccc(Nc2nc(-c3cccnc3)nc3ccccc23)c1	1.11	1.29
COc1ccc(CN2CCN(Cc3cccc4ccccc34)CC2)c(OC)c1	0.773	-2.72
COc1ccc(Cl)cc1N1CC(c2nc3ccccc3n2Cc2ccccc2)CC1=O (stereo not drawn)	0.959	-0.779
Cc1oc(-c2ccc(Cl)cc2)nc1CN1CCC(C(=O)NCCCN2CCN(C)CC2)CC1	1.23	3.28
OC1CC2CCC(C1)N2CC(O)(c1ccccc1)c1ccccc1 (stereo not drawn)	0.993	-0.14
Cc1ccc(CN2C(=O)CSc3ccc(C(=O)NCc4ccc(F)cc4)cc32)cc1	1.06	2.28
Cc1cccc(CCNC(=O)CCN2N=C(c3ccccc3)CCC2=O)c1	0.983	-0.239
Cc1ccc(Oc2nnc(-c3cccs3)c3ccccc23)cc1	0.911	-1

Next part
SMILES	CBX7 AlphaScr	CBX7 AlphaScr z-score
COc1ccc(CNC(=O)c2cc(-c3ccc(Cl)s3)nc3ccccc23)cc1	1.01	0.521
CCOC(=O)c1[nH]c2c(c1C)C(=O)CC(c1cc(OC)ccc1OC)C2 (stereo not drawn)	1.06	1.25
Cc1ccccc1-c1nc(CSCC(=O)NC(C)c2ccc3c(c2)OCCO3)c(C)o1 (stereo not drawn)	1.14	2.13
CC(=O)N1c2ccccc2NC(=O)CC1C (stereo not drawn)	0.871	-2.39
O=C1CCCc2c1cc(C(=O)Nc1ccccc1F)c(=O)n2-c1ccccc1	1.08	0.332
CC(C)c1ccc(Nc2cc(C(=O)NCCCN3CCCC3)c3ccccc3n2)cc1	1.28	7.65
O=C(NCCCN1CCN(c2ccccc2F)CC1)c1cc2ccccn2n1	0.932	-1.35
Cc1ccc(Nc2c(-c3ccccn3)nc3ccc(Br)cn23)cc1	0.97	-0.0522
CC(C(=O)NCc1ccc2c(c1)OCO2)N1C(=O)CC(C)(C)Sc2ccccc21 (stereo not drawn)	1.03	1.06
COc1ccc(Nc2ncc(C(=O)Nc3cc(OC)ccc3OC)c3ccccc23)cc1	1.02	0.353

Next structures:
SMILES	CBX7 AlphaScr	CBX7 AlphaScr z-score
CCCCSCCCNC(=O)c1cc(Nc2ccc(OC)cc2)nc2ccccc12	1.01	0.106
CCOc1ccccc1C1CC(=O)Nc2c1ccc(C)c2C (stereo not drawn)	0.968	-1.28
CC1CCCN(S(=O)(=O)c2ccc3[nH]c(=O)cc(C(=O)NCc4ccc(F)cc4)c3c2)C1 (stereo not drawn)	1.02	0.709
CN1C(=O)c2ccccc2Sc2ccc(C(=O)NCC3CCCO3)cc21 (stereo not drawn)	0.953	-0.617
Cc1ccc(NC(=O)C2CCCN(S(=O)(=O)c3c(C)nn(C)c3C)C2)c(C)c1 (stereo not drawn)	0.998	-0.0243

Source: PubChem BioAssay

An excerpt; rates above refer to the full screens.
